Screening data from PubChem BioAssay.
Sa ugtP lethal: growth inhibition of S. aureus ugtP deletion strain. S. aureus RN4220 ugtP deletion, OD600 growth, 16 h; some inactives read as strong as hits. growth inhibition, % (no concentration beside the values). 0.54% of 330,000 active. AID 1259309;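 active = z-score under -3 and OD600 up to 0.15 on both plates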;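 also: plate controls were untreated wells for no effect and antibiotic for full effect; wells of about 80 µL received 100 nL stock; the first replicate is given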
Bead autofluor: compound fluorescence in toxin protease inhibitor counterscreen. compound autofluorescence counterscreen, microsphere flow cytometry; stronger effect = higher value. fluorescence intensity (no concentration beside the values). 3.1% of 360,000 active. AID 624483;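 active = at least 3 SD above the mean of all compounds, about 16000 in these data; inconclusive = too few beads counted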;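 also: 100 nL of 1 mM stock went into each well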
Mtb hypoxia rep: Mtb hypoxia fluorescent reporter inhibition | M. tuberculosis hypoxia-regulated fluorescent reporter, fluorescence | fluorescence inhibition, % (no concentration beside the values) | 0.1% of 300,000 active | AID 1159583;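 active = 35 to 45% if threefold the growth effect, above 45% if 1.5-fold the growth effect; inactive = the rest, general growth blockers included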;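 also: wells of about 50 µL received 100 nL stock; 0% = vehicle wells and 100% = reference inhibitor wells; whole bacteria with a GFP reporter of the hypoxia response; strong numbers were not always called active; many hits fall short of the cut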
PrP UTR inh: inhibition of PrP 5' UTR reporter expression; cell-based PrP 5' UTR mRNA reporter, plate reader; inhibition, % (concentration not given with the values); 0.35% of 340,000 active;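 active = every replicate at 50% or more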;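 also: 0 = median of the neutral control wells; tested in H4 reporter cells; numbers are from one replicate; inactives centre near -14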
BJeLR viability: kills HRASV12-expressing BJeLR cells; BJeLR (HRASV12) viability, CellTiter-Glo ATP luminescence, 48 h; reference of the scale not given here; inhibition, % (no concentration beside the values); 0.17% of 300,000 active;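 active = replicate mean above 50%; inconclusive = above 50% but judged a plate artefact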;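 also: 50 nL library stock added to about 25 µL; numbers are from one replicate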
Sa RN4220 lethal: S. aureus RN4220 growth inhibition. OD600, 16 h. inhibition, % (test concentration not listed). 0.33% of 330,000 active. AID 1259311;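 active = z-score of -3 or lower and OD600 up to 0.18 on both plates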;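 also: plate controls were untreated cells for no effect and reference antibiotic for full effect; stock transfer was 100 nL into about 80 µL; one replicate is shown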
Mtb hypoxia rep growth: recorded beside Mtb hypoxia rep, whose call it bears; growth inhibition, %; measured here: M. tuberculosis growth (absorbance);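 0% = vehicle and 100% = reference antibiotic; read after six days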
Numbers without * were called inactive; ? = inconclusive; . = not tested or not shown.

1: CC(=O)c1cccc(NC(=O)c2ccc(CN3CCc4ccccc4C3)cc2)c1
2: Cc1cc(C)nc(Nc2n[nH]c(C)n2)n1
3: CC(=O)N1N=C(c2ccc(NS(=O)(=O)c3ccccc3)cc2)CC1c1ccco1 (stereo not drawn)
4: COCCn1cc(C(=O)NCCCN2CCC(C)CC2)c2c3ccccc3n(C)c2c1=O
5: Cc1cc(O)c(C(=O)Cc2csc(C)n2)c(O)c1
6: COc1ccccc1N1C(=O)C2C(c3ccccc3F)NN(C(=O)c3ccc(C)cc3)C2C1=O (stereo not drawn)
7: O=C(Nc1ccc(C(=O)N2CCOCC2)cc1)c1cc(-c2cccnc2)nc2ccc(Cl)cc12
8: Cc1cc(C=NNC(=O)CC(=O)NC2CCCCC2)c(C)n1-c1cccc(Cl)c1Cl

Screen / compound no.,1,2,3,4,5,6,7,8
Bead autofluor,2922,5781,3952,11153,4300,4469,3464,.
BJeLR viability,6,8,.,9,3,-3,-4,.
Mtb hypoxia rep growth,-6,8,-4,12,4,.,8,7
Mtb hypoxia rep,8,4,2,4,4,.,-6,0
Sa RN4220 lethal,-5.8,5.7,1.9,-0.8,2.2,.,8.1,1.2
Sa ugtP lethal,-1,0,-3,-1,5,.,-73,-10
PrP UTR inh,4,-30,-49,-13,-33,-1,-2,.

Part of the list above, with each value named:
[2] Cc1cc(C)nc(Nc2n[nH]c(C)n2)n1
  Bead autofluor: 5781
  BJeLR viability: 8
  Mtb hypoxia rep growth: 8
  Mtb hypoxia rep: 4
  Sa RN4220 lethal: 5.7
  Sa ugtP lethal: 0
  PrP UTR inh: -30
[1] CC(=O)c1cccc(NC(=O)c2ccc(CN3CCc4ccccc4C3)cc2)c1
  Bead autofluor: 2922
  BJeLR viability: 6
  Mtb hypoxia rep growth: -6
  Mtb hypoxia rep: 8
  Sa RN4220 lethal: -5.8
  Sa ugtP lethal: -1
  PrP UTR inh: 4

Next compounds
9: COc1ccccc1NS(=O)(=O)c1cccc(NC(=O)c2sc3ccccc3c2Cl)c1
10: COc1cc(OC)cc(C(=O)NCC(=O)OCC(=O)NC(C)(C)C)c1
11: CCCC(=O)NC(=S)Nc1cccc(NC(=O)c2ccccc2Cl)c1
12: Cc1cc(C)cc(NC(=O)CCN2CCCC2)c1
13: CCCn1c(SCC(=O)N2c3ccccc3Sc3ccccc32)nc2ccccc21
14: O=C(NCc1ccco1)Nc1ccccc1Cl
15: COc1ccc(NC(C)=O)c2nc(C)c(C)nc12
16: CC1=C(C(=O)OC(C)C)C(c2ccccc2)NC(=O)N1C (stereo not drawn)

Screen / compound no.,9,10,11,12,13,14,15,16
Bead autofluor,4433,1995,2016,5309,2514,8701,5904,3473
BJeLR viability,10,2,11,4,2,-16,-6,3
Mtb hypoxia rep growth,3,3,6,-2,0,14,2,1
Mtb hypoxia rep,-3,7,5,19,3,1,-3,-7
Sa RN4220 lethal,-10,1.6,7.5,4.8,2.0,-0.1,-0.7,3.8
Sa ugtP lethal,-3,6,13,3,5,-3,-2,2
PrP UTR inh,-33,7,-20,-26,-6,-33,1,-13

17: O=[N+]([O-])c1cccc(-c2cn3ccccc3n2)c1
18: COc1cc(OC)cc(C(=O)NC2CCSc3ccccc32)c1 (stereo not drawn)
19: O=C(CSC1=NS(=O)(=O)c2cc(F)ccc2N1)Nc1cccc(F)c1
20: O=C(Nc1cc(C(F)(F)F)ccc1N1CCOCC1)c1ccncc1
21: O=C(Nc1cc(Cl)ccc1-n1cncn1)c1cccs1
22: O=C(COc1ccc(S(=O)(=O)N2CCOCC2)cc1Cl)NCCN1CCOCC1
23: CC(Nc1nc(-c2cccc(Br)c2)cs1)c1nc2cc(Cl)c(N3CCCCC3)cc2n1CCOCCO (stereo not drawn)
24: CCOC(=O)C1CCN(Cc2ccc(OC)c(OCc3ccccc3)c2)CC1

Screen / compound no.,17,18,19,20,21,22,23,24
Bead autofluor,2501,?,5825,?,?,3853,3761,.
BJeLR viability,6,-2,8,.,5,-1,-4,-3
Mtb hypoxia rep growth,0,-2,7,4,0,2,-1,-3
Mtb hypoxia rep,10,-6,-8,10,6,8,5,7
Sa RN4220 lethal,6.3,3.1,4.3,3.3,1.4,3.9,-7.8,5.6
Sa ugtP lethal,10,-7,10,3,14,1,-2,1
PrP UTR inh,-69,-14,3,0,-4,-24,-16,-12

25: CCn1ccnc1CN(C)C(=O)c1ccc(OC2CCN(CCc3ccccc3)CC2)cc1
26: OC(CNCCC(c1ccccc1)c1ccccc1)COc1ccccc1 (stereo not drawn)
27: CN(C)c1cccc(C(=O)OCC(=O)NCc2ccco2)c1
28: O=C(Nc1nc(-c2ccco2)c(-c2ccco2)s1)C1CCC1
29: COC(=O)c1ccc(CN(c2ccc(OC)cc2)S(=O)(=O)c2ccccc2)cc1
30: CCc1cccc(NC(=S)N2CCC(c3ccccc3)C2)c1 (stereo not drawn)
31: Cc1cc(-c2nc(C)c(C(=O)NNS(=O)(=O)c3ccccc3)s2)no1
32: Cc1noc(C)c1C(=O)N1CCCC(C(=O)c2ccc(Cl)cc2)C1 (stereo not drawn)

Screen / compound no.,25,26,27,28,29,30,31,32
Bead autofluor,4448,4458,3863,7258,.,4508,.,4187
BJeLR viability,1,-5,-1,-3,7,-4,4,3
Mtb hypoxia rep growth,-5,14,.,-2,8,-1,20,5
Mtb hypoxia rep,0,8,.,3,4,4,9,9
Sa RN4220 lethal,1.8,-4.1,-3.3,3.6,14,-2.3,5.5,3.5
Sa ugtP lethal,4,12,4,-36,32,-11,2,14
PrP UTR inh,-7,1,-24,-4,-21,-30,.,-20

33: COC(=O)CCC(=O)Nc1ccc(S(=O)(=O)Nc2cc(OC)nc(OC)n2)cc1
34: Cc1cc(NC(=O)CSc2nnc(-c3c[nH]c4ccccc34)n2-c2ccc(F)cc2)no1
35: COc1ccc(N(Cc2cc3cccc(C)c3[nH]c2=O)S(C)(=O)=O)cc1
36: Cc1[nH][nH]c(=O)c1C(c1ccc(F)cc1)c1c(C)[nH][nH]c1=O
37: CNS(=O)(=O)c1ccc(C(=O)NCC(=O)NCCC(c2ccccc2)c2ccccc2)cc1
38: CCOc1ccc(N2CC(C(=O)Nc3cc(S(=O)(=O)N4CCCCC4)ccc3C)CC2=O)cc1 (stereo not drawn)
39: COC(=O)c1ccc(CNC(=O)CSc2nc3sc(C)c(C)c3c(=O)n2C)o1
40: CC1Cc2ccccc2N1CC(=O)Nc1ccc(N2CCOCC2)cc1 (stereo not drawn)

Screen / compound no.,33,34,35,36,37,38,39,40
Bead autofluor,3679,5746,24150*,3973,?,6386,12366,1944
BJeLR viability,-9,.,-13,-7,.,.,-2,9
Mtb hypoxia rep growth,2,10,10,3,11,9,-5,-1
Mtb hypoxia rep,-3,3,2,6,-12,11,4,13
Sa RN4220 lethal,2.7,-12,3.1,1.2,-3.4,1.3,0.3,1.4
Sa ugtP lethal,6,-12,-2,3,1,3,4,8
PrP UTR inh,3,-10,-2,-2,0,-4,-9,-17

41: CCOc1nc2cnccc2n(CC(=O)Nc2ccccc2C(=O)OC)c1=O
42: CC(=O)OC1CCC2C3CCC4=CC(=O)CCC4(C)C3CCC2(C)[C@]1(C)O (stereo partly drawn)
43: CCC(C(=O)OC)n1cnc2c(nnn2-c2cccc(Cl)c2)c1=O (stereo not drawn)
44: CN1CCC(OC(=O)COc2ccc(C(C)(C)C)cc2)CC1
45: CCOc1ccccc1NC(=S)N1CCN(c2ccccc2F)CC1
46: O=C(CNc1ccc(F)cc1F)NC(=O)NCc1ccco1
47: COc1ccc(C2C3=C(CCCC3=O)Nc3nc(-c4cc(OC)c(OC)c(OC)c4)nn32)cc1OC (stereo not drawn)
48: O=C(c1sc2cc(F)ccc2c1Cl)N1CCN(c2ccccc2)CC1

Screen / compound no.,41,42,43,44,45,46,47,48
Bead autofluor,5195,3989,7027,11085,3654,4611,9592,2112
BJeLR viability,-12,-3,0,-6,8,2,-4,1
Mtb hypoxia rep growth,-5,10,13,0,.,4,-1,12
Mtb hypoxia rep,-1,5,7,3,.,4,-3,8
Sa RN4220 lethal,0.1,6.3,-11,2.8,.,0.4,7.0,-3.4
Sa ugtP lethal,6,2,4,7,.,9,12,0
PrP UTR inh,-12,-13,2,.,-38,-20,-10,-7

49: Cc1nc2ccccc2c2nc3ccccc3n12
50: Cc1ccc(OCCCCN2CCCCC2)c(Br)c1
51: COC(=O)C1CCN(C(=O)c2sc3nc(-c4ccccc4)cn3c2C)CC1
52: CCSc1nnc2ccc(-c3cccs3)nn12
53: O=C(Nc1ccc(F)cc1)N1CCN(C/C=C/c2ccccc2)CC1
54: CCc1ccccc1NC1=NCC(=O)N1C1CCCC1
55: Cc1cc(C(=O)OCC(=O)N2CCCC2)c2ccccc2n1
56: COC(=O)c1sc(SC)c(S(=O)(=O)C(C)C)c1NN=C(C#N)S(=O)(=O)c1ccccn1

Screen / compound no.,49,50,51,52,53,54,55,56
Bead autofluor,5223,7662,5349,4422,9637,2237,8505,.
BJeLR viability,-5,3,-4,21,-5,0,-8,.
Mtb hypoxia rep growth,19,8,11,2,3,-1,10,12
Mtb hypoxia rep,8,14,16,-8,3,-1,9,20
Sa RN4220 lethal,-0.5,6.6,2.9,1.5,2.8,6.3,6.4,3.0
Sa ugtP lethal,10,-1,3,-4,0,3,6,6
PrP UTR inh,-13,-10,-33,0,-7,-20,.,.

57: Cc1cccc(OCC(O)CN2CCN(c3ccccn3)CC2)c1C (stereo not drawn)
58: COc1ccccc1NS(=O)(=O)c1ccc(C)c(NC(=O)c2c(C)noc2C)c1
59: CC(C)(C)OC(=O)CNC(=O)c1[nH]cnc1C(=O)NCC(=O)OCc1ccccc1
60: Cc1cc(C)c(S(=O)(=O)N2CCN(S(=O)(=O)N3CCOCC3)CC2)c(C)c1
61: O=C(Cc1csc(N2CCOCC2)n1)N/N=C/c1ccccc1C(=O)O
62: COc1cc(OC)cc(-c2nc3cc(C)ccc3o2)c1
63: Cc1cc(C)n(Cc2cccc(C(=O)N/N=C/c3ccncc3)c2)n1
64: Nc1ccc2c(c1)CCC2=O

Screen / compound no.,57,58,59,60,61,62,63,64
Bead autofluor,5833,2859,4175,4007,4493,22263*,4646,11465
BJeLR viability,1,.,3,-6,-2,23,5,-38
Mtb hypoxia rep growth,-8,-6,4,1,.,4,.,8
Mtb hypoxia rep,-1,-6,10,9,.,-1,.,6
Sa RN4220 lethal,-1.0,-4.5,5.3,4.6,.,4.2,.,2.9
Sa ugtP lethal,4,-1,5,3,.,-4,.,8
PrP UTR inh,-4,-18,-2,-23,-27,-65,-7,.

65: CC(C)COP(=O)(OCC(C)C)C(O)c1ccc(N(C)C)cc1 (stereo not drawn)
66: Cc1cc2c(ncn2Cc2ccccc2)c([N+](=O)[O-])c1C
67: CC(=NNC(=O)COc1cccc(C)c1)c1ccc2ccccc2c1O
68: CCOC(=O)C1CCN(C(=O)CCNC(=O)Cn2cnc3ccccc3c2=O)CC1

Screen / compound no.,65,66,67,68
Bead autofluor,6227,22108*,.,5815
BJeLR viability,-19,-16,.,7
Mtb hypoxia rep growth,2,4,8,4
Mtb hypoxia rep,13,4,5,8
Sa RN4220 lethal,2.4,9.0,-3.3,5.9
Sa ugtP lethal,7,-5,-8,-3
PrP UTR inh,-25,-10,.,-27
